Mtb hypoxia rep – PubChem AID 1159583; fluorescence inhibition, % (no concentration beside the values); hit rate 0.1% among 300,000; M. tuberculosis hypoxia-regulated fluorescent reporter, fluorescence;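 active means 35 to 45% if threefold the growth effect, above 45% if 1.5-fold the growth effect; inactive means the rest, general growth blockers included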;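 further: wells of about 50 µL received 100 nL stock; 0% = vehicle wells and 100% = reference inhibitor wells; whole bacteria with a GFP reporter of the hypoxia response; strong numbers were not always called active; many hits fall short of the cut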
BJeLR lethal – MLPCN primary cell-based screen for lethality selective to Ras in HRASV12 cells; inhibition, % (no concentration beside the values); hit rate 0.17% among 300,000; BJeLR (HRASV12) viability, CellTiter-Glo ATP luminescence, 48 h; reference of the scale not given here; AID 1554, 2009;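 active means replicate mean above 50%; inconclusive means above 50% but judged a plate artefact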;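 further: 50 nL library stock added to about 25 µL; numbers are from one replicate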
Sa RN4220 lethal – growth inhibition of S. aureus RN4220, primary screen, OD600. 16 h. inhibition, % (concentration not given with the values). hit rate 0.33% among 330,000. AID 1259311, 2017;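 active means z-score of -3 or lower and OD600 up to 0.18 on both plates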;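 further: plate controls were untreated cells for no effect and reference antibiotic for full effect; stock transfer was 100 nL into about 80 µL; one replicate is shown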
PrP 5UTR inh – inhibition of PrP 5' UTR reporter expression; cell-based PrP 5' UTR mRNA reporter, plate reader; inhibition, % (concentration not given with the values); hit rate 0.35% among 340,000; AID 488862, 2010;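 active means every replicate at 50% or more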;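 further: 0 = median of the neutral control wells; tested in H4 reporter cells; numbers are from one replicate; inactives centre near -14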
Bead autofluor – counter-screen for toxin protease inhibitors: compound fluorescence | compound autofluorescence counterscreen, microsphere flow cytometry; hits give high values | fluorescence intensity (no concentration beside the values) | hit rate 3.1% among 360,000 | AID 624483;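 active means at least 3 SD above the mean of all compounds, about 16000 in these data; inconclusive means too few beads counted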;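 further: 100 nL of 1 mM stock went into each well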
Sa ugtP lethal – growth inhibition of ugtP-null S. aureus, primary screen, RN4220 ugtP deletion, OD600; hit rate 0.54% among 330,000; 16 h; some inactives read as strong as hits; AID 1259309, 2017; growth inhibition, % (test concentration not listed);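 active means z-score under -3 and OD600 up to 0.15 on both plates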;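 further: plate controls were untreated wells for no effect and antibiotic for full effect; wells of about 80 µL received 100 nL stock; the first replicate is given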
Mtb hypoxia rep growth – recorded beside Mtb hypoxia rep, whose call it bears; growth inhibition, %; measured here: M. tuberculosis growth (absorbance);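 0% = vehicle and 100% = reference antibiotic; read after six days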
The depositor's hits bear a star; u = inconclusive; x = no result given; & = joins results of further samples.

SMILES | Mtb hypoxia rep | Mtb hypoxia rep growth | BJeLR lethal | Sa RN4220 lethal | PrP 5UTR inh | Bead autofluor | Sa ugtP lethal
Cc1ccccc1Nc1nccc(N(C)C)c1C#N | 2 | 7 | 3 | 1.7 | -17 | 4233 | 1
COc1ccc(/C=C(/NC(=O)c2ccccc2)C(=O)N/N=C/c2ccncc2)c(OC)c1 | x | x | 6 | x | -9 | 2599 | x
CCOC(=O)c1cc2sccc2n1CC(=O)Nc1ccc(OC)c(OC)c1 | -8 | 1 | -6 | 8.8 | -11 | 9332 | -2
Cc1ccc(NC(=O)C2CCN(S(C)(=O)=O)CC2)cc1C | 4 | -9 | -2 | 1.5 | -24 | 8980 | -1
CN(CCNS(=O)(=O)c1ccc2c(c1)oc(=O)n2C)Cc1ccccc1 | 5 | 9 | 12 | -13 | -23 | 5319 | -4
OCC1(Cc2cccc(F)c2)CCN(Cc2ccc3cccc(F)c3n2)CC1 | 3 | 1 | -1 | 5.9 | -26 | 2421 | 6
CCC(=O)NC(c1ccccc1)c1c(OC(C)=O)ccc2ccccc12 (stereo unspecified) | 13 | 3 | 3 | 9.9 | -11 | 4466 | 1
CCOC(=O)c1sc(NC(=O)CSc2nnnn2-c2ccccc2)c(C(=O)OCC)c1C | -2 | 16 | 7 | -4.5 | -10 | 2415 | -12
COc1ccccc1N1CCN(S(=O)(=O)CCNC(=O)CC2CCCCC2)CC1 | 2 | 8 | 4 | 0.5 | -5 | x | 3
Cc1ccc(-n2nc3c(=O)n(C(C)C(=O)NCc4ccco4)nc(C)c3c2C)cc1 (stereo unspecified) | 9 | 13 | 2 | 1.1 | 11 | 4134 | 3
Cc1ccccc1OCCCn1c(=O)sc2ccccc21 | x | x | -1 | 5.3 | -66 | 4072 | 8
Oc1ccccc1-[n+]1c(-c2ccccc2)cc(-c2ccccc2)c(O)c1-c1ccccc1 | -1 | 1 | -2 | 13 | -8 | 3828 | -17
CNS(=O)(=O)c1ccc(NC(=O)Nc2ccc3c(c2)OCO3)cc1 | -3 | 2 | 3 | -8.0 | -20 | u | -7
COc1ccc(Cn2cc([N+](=O)[O-])nc2C)cc1[N+](=O)[O-] | -8 | -1 | -6 | 2.5 | -1 | 3651 | -2
Cc1cc(O)cc(O)c1C(=O)Cc1ccccc1 | 16 | 7 | -7 | 4.4 | -7 | 1913 | -14
Cn1nnnc1NCc1cccc(Cl)c1Cl | 5 | 0 | 10 | 3.7 | -26 | 4391 | 6
S=c1[nH]ncn1N=Cc1ccc(Br)cc1 | 8 | 7 | x | 5.1 | x | x | 6
CCN(CC)C(=O)[C@H]1CC(CC(=O)NCCC2=CCCCC2)C(=O)N2CCc3c([nH]c4ccccc34)[C@]12C (stereo partly specified) | -7 | -11 | x | -3.4 | -17 | 3125 | -8
Cc1sc(NC(=O)C2CCCC2)c(C#N)c1C | -2 | 0 | -3 | 5.7 | -20 | 7381 | -1
O=C(NC1CCCC1)C1CC(=O)N(c2ccccc2)C1 (stereo unspecified) | 5 | 4 | -8 | 3.7 | -25 | 3546 | 2

The closing five records of the part above come first, to join the parts:
SMILES | Mtb hypoxia rep | Mtb hypoxia rep growth | BJeLR lethal | Sa RN4220 lethal | PrP 5UTR inh | Bead autofluor | Sa ugtP lethal
Cn1nnnc1NCc1cccc(Cl)c1Cl | 5 | 0 | 10 | 3.7 | -26 | 4391 | 6
S=c1[nH]ncn1N=Cc1ccc(Br)cc1 | 8 | 7 | x | 5.1 | x | x | 6
CCN(CC)C(=O)[C@H]1CC(CC(=O)NCCC2=CCCCC2)C(=O)N2CCc3c([nH]c4ccccc34)[C@]12C (stereo partly specified) | -7 | -11 | x | -3.4 | -17 | 3125 | -8
Cc1sc(NC(=O)C2CCCC2)c(C#N)c1C | -2 | 0 | -3 | 5.7 | -20 | 7381 | -1
O=C(NC1CCCC1)C1CC(=O)N(c2ccccc2)C1 (stereo unspecified) | 5 | 4 | -8 | 3.7 | -25 | 3546 | 2
Cn1nnnc1SCC(=O)Nc1ccccc1C(=O)NCc1ccccc1 | -9 | -8 | -11 | 2.4 | -5 | 11443 | 4
CC(=O)n1cc(C=NNC(=O)c2ccccc2Cl)c2ccccc21 | 13 | 10 | x | 3.6 | x | x | 4
c1nc(NC2CCCC2)c2[nH]cnc2n1 | 0 | -5 | 2 | 4.4 | -29 | 5808 | 14
O=C(C1CCCN(Cc2ccc(F)cc2)C1)N1CCCCC1 (stereo unspecified) | -1 | 11 | -6 | 2.9 | -28 | 4204 | 4
CCOc1ccc(Br)cc1S(=O)(=O)Nc1ccc(C(=O)Nc2ccccc2OC)cc1 | 3 | 10 | 0 | -3.0 | -24 | 7864 | -10
COCCn1c(SCC(=O)N2CCCC2)nnc1-c1ccco1 | 6 | 9 | 2 | 2.4 | -25 | 3294 | 5
O=C(NN=Cc1ccc[nH]1)c1ccc(COc2cccc3cccnc23)cc1 | -2 | -2 | x | 8.5 | x | x | 0
O=C(Nc1ccc2c(c1)OCO2)C1CC(=O)N(c2ccc(F)cc2)C1 (stereo unspecified) | 7 | 2 | -9 | 3.8 | -23 | 3133 | 5
CCCn1c(SCC(=O)NCc2ccco2)nc2c1c(=O)n(C)c(=O)n2C | 2 | 1 | 0 | 2.1 | -28 | 22819* | 3
CCOc1ccc2cc(C#N)c(SCC(=O)N3CCOCC3)nc2c1 | 5 | 1 | 7 | 9.8 | -40 | 13978 | 2
Cc1c(NC(=O)C(C)OC(=O)c2cccs2)c(=O)n(-c2ccccc2)n1C (stereo unspecified) | -5 | 2 | 5 | 2.7 | -10 | 4418 | 6
O=C(Nc1ncc2c(n1)CC(c1ccccc1)CC2=O)c1ccco1 (stereo unspecified) | 6 | 2 | 9 | 7.7 | -25 | 11338 | 4
CCCC(O)(CCC)C(=O)NNc1ccccc1 | x | x | -1 | 1.8 | -16 | 2794 | 0
O=C(Nc1ccccc1)/C(=C\c1ccncc1)NC(=O)c1ccccc1 | 9 | 6 | -21 | 12 | -12 | 9303 | 4
CN(C)CCNC(=O)CCCNC(=O)Cn1cnc2sc3c(c2c1=O)CCCC3 | 22 | 6 | 10 | 1.4 | -8 | 4022 | 3
Cc1ccc(Cn2nc(C)c(NC(=O)CSc3n[nH]c(C)c3[N+](=O)[O-])c2C)cc1 | -1 | 2 | 2 | 7.6 | -33 | 6659 | 14
Cc1ccc(/C=C2/C(=O)NC(=O)N(CC3CCCO3)C2=O)s1 (stereo unspecified) | 3 | 1 | 0 | 2.3 | -21 | 2252 | 4
COc1ccccc1Oc1nc([N+](=O)[O-])nn1CC(N)=O | 15 | 0 | 2 | 20 | -2 | 4427 | -2
CC(=O)c1cccc(NS(=O)(=O)c2csc(C(N)=O)c2)c1 | -5 | 5 | 5 | -0.5 | x | 3007 | 0
COc1ncccc1-c1nnn(-c2ccccc2Br)n1 | 11 | 7 | -8 | 4.9 | -12 | 4114 | 4

Reprinted from the part before: three compounds, followed by the next part.
SMILES | Mtb hypoxia rep | Mtb hypoxia rep growth | BJeLR lethal | Sa RN4220 lethal | PrP 5UTR inh | Bead autofluor | Sa ugtP lethal
COc1ccccc1Oc1nc([N+](=O)[O-])nn1CC(N)=O | 15 | 0 | 2 | 20 | -2 | 4427 | -2
CC(=O)c1cccc(NS(=O)(=O)c2csc(C(N)=O)c2)c1 | -5 | 5 | 5 | -0.5 | x | 3007 | 0
COc1ncccc1-c1nnn(-c2ccccc2Br)n1 | 11 | 7 | -8 | 4.9 | -12 | 4114 | 4
O=C1c2ccccc2C(Nc2ccccc2)N1Cc1ccc2c(c1)OCO2 (stereo unspecified) | 4 | 6 | -16 | 4.2 | -10 | 4720 | 13
CN(C)N1C(=O)CC(N2CCCC2)C1=O (stereo unspecified) | 5 | -5 | 14 | 2.4 | -3 | 4313 | 3
Brc1ccccc1-c1ccccc1 | -3 | 9 | x | 2.7 | 4 | 4016 | 2
CCCNS(=O)(=O)c1ccc(OCC(=O)N2CCN(c3ccccc3)CC2)cc1 | 3 | 8 | -7 | 2.0 | -49 | 4294 | -1
COc1ccc(S(=O)(=O)n2nc(OC(=O)c3c(-c4ccccc4Cl)noc3C)cc2N)cc1 | x | x | 6 | -5.9 | 5 | 4797 | -7
CCCCCn1c(=O)[nH]c2cc(C(=O)NCc3ccc4c(c3)OCO4)ccc2c1=O | 2 | 3 | -3 | -5.2 | -11 | 3818 | -7
Cc1cccc(OCC(=O)N(Cc2ccc(C)o2)C2CCS(=O)(=O)C2)c1 (stereo unspecified) | -2 | -2 | 7 | 3.2 | -28 | u | 2
CCc1ccc2ncc(C(=O)c3ccccc3)c(N3CCOCC3)c2c1 | -4 | 10 | -2 | 1.6 | -13 | 6175 | -5
CCOCCc1nnc(NC(=O)c2cc(OC)c(OC)cc2[N+](=O)[O-])s1 | -17 | -21 | 6 | 3.2 | -8 | 3943 | 2
CN(C)CCSc1nc2cc(S(=O)(=O)N3CCCCC3)ccc2o1 | 35* | 75* | x | 4.8 | -16 | 3824 | 5
CCOc1ccc(N2C(=O)CC(Cc3ccc(Br)cc3)C2=O)cc1 (stereo unspecified) | 5 | -2 | 3 | 0.7 | 2 | 3804 | 10
CN(CC(=O)NC(c1ccccc1)c1ccccc1)Cc1nc2ccccc2c(=O)[nH]1 | -2 | 0 | -1 | -13 | -9 | 3287 | 7
C=C1c2cc(CC)ccc2NC(=O)N1c1ccc(C)cc1 | x | x | 1 | 1.1 | 0 | 5016 | 5
NS(=O)(=O)c1ccc(CNC(=O)Cn2nc(C(F)F)cc2C(F)F)cc1 | -8 | -4 | x | 3.5 | -10 | 6739 | 4
CCc1ccccc1-n1cnc2cc(C(=O)O)ccc21 | x | x | -9 | -2.1 | -33 | 2828 | 1
CC(C)C1C=C(C(=O)O)OC(OCCCCO)C1 (stereo unspecified) | 8&9 | 10&-3 | x | 1.7&0.3 | x | x | -2&-4
CCOC(=O)CN(c1ccccn1)S(=O)(=O)c1ccc(OC)cc1 | 5 | -4 | -8 | 2.1 | -7 | 3260 | 8
Cc1ccc2oc(=O)c3cnn(CC(=O)NCCc4ccsc4)c3c2c1 | 4 | 3 | 4 | -4.9 | -16 | 5925 | -6
COc1cccc(CN(C(=O)COc2ccccc2[N+](=O)[O-])C2CCS(=O)(=O)C2)c1 (stereo unspecified) | 0 | -15 | -5 | 2.2 | -13 | 4380 | -2
Cc1nc(CCNC(=O)C2CCC(=O)N(CCc3cccc(F)c3)C2)sc1C (stereo unspecified) | 5 | -1 | -7 | 1.6 | 0 | 6170 | 5
CC(C)c1nc(N2CCN(C(=O)c3ccco3)CC2)c(C#N)c2c1COC(C)(C)C2 | 6 | 4 | 2 | 6.2 | -69 | 3818 | 3
CCCCCC=CC1=CC(=O)CC(c2ccc3c(c2)OCO3)C1 (stereo unspecified) | 9 | 8 | x | -1.3 | x | x | 75
COC(=O)C1=C(C(=O)c2ccc(C)cc2)C(c2ccccc2)n2nnnc2N1 (stereo unspecified) | -4 | -11 | -8 | 30 | -1 | 2650 | 15
CCOc1ccc(NC(=S)NC(=O)/C=C/c2ccc(OC)cc2)c([N+](=O)[O-])c1 | x | x | 19 | x | -15 | 10374 | x
O=C(Cn1c(=O)c2cccn2c2ccccc21)NCCc1ccccc1 | -5 | -1 | -4 | 1.9 | 3 | 4357 | 0
COc1ccc2cnn(-c3ccccc3)c(=O)c2c1OC | 12 | 3 | -7 | -2.7 | -22 | 4703 | 2

Compound activity from PubChem BioAssay.
